High-throughput results from PubChem BioAssay.
Measles inh = inhibitors of measles virus growth in infected cells. z-score (concentration not given with the values). AID 745. hit rate 0.1% among 33,000. infected Vero cells, GFP fluorescence, 64 h; active compounds read low;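 active means z-score under -3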;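 further: score is relative to mean and SD of the compound wells of a plate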
An asterisk follows results filed as active.

SMILES	Measles inh
COc1ccc(C(=O)CC(Nc2cccc(Br)c2)c2cccc(Br)c2)cc1 (centres undefined)	-1.5
CCOC(=O)c1c(NC(=O)c2ccc([N+](=O)[O-])cc2)sc(C(=O)Nc2ccc(C)cc2C)c1C	1.6
COc1cccc(C2C3=C(CC(c4ccc(C)cc4)CC3=O)Nc3ccccc3N2C(=O)c2cc(OC)c(OC)c(OC)c2)c1 (centres undefined)	1.9
CC(C)NC(=O)CN(Cc1ccc(Br)cc1)S(=O)(=O)c1ccccc1	-0.27
COc1ccccc1N1CCN(c2ccc([N+](=O)[O-])cc2C(=O)O)CC1	-0.05
O=[N+]([O-])c1cccc(C=Nc2ccc3oc(-c4cccc(F)c4)nc3c2)c1	-0.59
CN1CCN(C(=O)c2ccc(Cn3cc(Cl)cn3)o2)CC1	0.15
CCn1c2ccccc2c2nnc(SCC(=O)c3ccccc3)nc21	0.9
O=C(Nc1nc2ccccc2s1)c1ccc(NC(=O)C2CCCCC2)cc1	-0.02
c1ccc(-c2nc3cc4ccccc4cc3nc2-c2ccsc2)cc1	-0.18
Cc1cc(C)n2c(SCC(=O)O)nnc2n1	-0.03
CCCCC(=O)Nc1c2c(nn1-c1ccc(C)cc1C)CS(=O)(=O)C2	2.1
O=C(CCC1CCCC1)Nc1c2c(nn1-c1ccc([N+](=O)[O-])cc1)CSC2	-0.95
CCc1c(O)nc(SCc2ccc(F)cc2)[nH]c1=O	-0.72
CCCS(=O)(=O)N1CCCC(C(=O)N2CCN(Cc3ccccc3)CC2)C1 (centres undefined)	1.9
O=c1[nH]c(NCCO)nc2ncn(Cc3ccccc3)c12	-0.37
CC(C)c1ccc(S(=O)(=O)N2CCN(CC(=O)Nc3ccccc3F)CC2)cc1	-0.87
CCN(c1ccc2nonc2c1[N+](=O)[O-])c1cccc2ccccc12	-1.2
CCc1cc2c(=O)c(-c3nc4ccccc4s3)c(C)oc2cc1OC(C)=O	0.88
COc1ccccc1OCCCCn1c(-c2ccc(Cl)cc2)nc2ccccc2c1=O	-0.16
CCN(CC)S(=O)(=O)c1cc(-c2n[nH]c(=O)c3ccccc23)ccc1C	1.9
CCOc1cccc2c1OC1(C)CC2NC(=O)N1c1cccc(C(=O)N2CCN(c3cc(C)ccc3C)CC2)c1 (centres undefined)	-1.5
CC(C)(C)n1cnc2cc(NCc3ccc(Br)cc3)ccc21	-0.49
O=C(CSc1ncnc2sc(-c3ccccc3)cc12)c1ccc2c(c1)OCCO2	0.43
N#Cc1cccc(N=c2oc3ccc(Br)cc3cc2C(=O)Nc2ccccc2)c1	-0.24
COc1ccc(-c2n[nH]c(=S)n2Cc2ccccc2)cc1OC	-0.4
Cc1ccccc1C1C=C(c2ccc(F)cc2)Nc2ncnn21 (centres undefined)	-0.28
COc1ccc(CCn2c(SCC(=O)C(C)(C)C)nc3ccccc3c2=O)cc1OC	0.05
COCCCNC(=O)Cn1c(=O)n(-c2ccc(Cl)cc2)c(=O)c2c3c(sc21)CCCC3	-0.53
COC(=O)c1c(NC(=O)C(C)Oc2ccc(F)cc2)sc2c1CCN(Cc1ccccc1)C2 (centres undefined)	0.29
O=C(Nc1cc(NC(=O)C2CCCCC2)cc(-c2nc3ccccc3[nH]2)c1)C1CCCCC1	0.59
COc1ccccc1CC(=O)Nc1ccc(-c2noc(COc3ccc(Br)cc3)n2)cc1	-0.94
O=C1CSc2ccc(S(=O)(=O)N3CCOCC3)cc2N1	-0.37
Cc1nn(C(C)(C)C)c(OC(=O)c2cccc([N+](=O)[O-])c2)c1Sc1ccccc1	1.3
Cn1c(-c2cc3ccc(O)c(CN4CCCCCC4)c3oc2=O)nc2ccccc21	-0.11
CCCCNC(=O)NS(=O)(=O)c1c(Cl)nc(C)c(Cl)c1C	-1.2
COc1ccc2c(c1)c(C(=O)CNc1nc(C)c(C)s1)c(C)n2C	-1
CCCCCNC(=O)c1ccc2c(c1)nc(C)n2-c1ccc(Br)cc1	-1.5
CCC1Oc2ccc(C)cc2N(CC(=O)NCc2ccccc2Cl)C1=O (centres undefined)	1.5
CC(C)c1ccc(OCc2nc(-c3ccc(Cl)cc3)no2)cc1	1.4
CC(=O)c1c(C)[nH]c(C(=O)NC2CCCC2)c1C	-0.9
N#Cc1cc2oc3ccccc3c3ccccc3oc2cc1C#N	-0.89
O=C(NC1CCCCCC1)c1cc2c(=O)oc3ccccc3c2s1	1.4
COc1ccc(-c2cc(C(F)(F)F)n3ncc(C(=O)NCc4ccco4)c3n2)cc1	-0.67
Cc1ccc(S(=O)(=O)N2CCC(C(=O)N3CCC(C(=O)NC4CCCC4)CC3)CC2)cc1	0.02
Cc1cc2c(cc1C)CSC(c1cccc([N+](=O)[O-])c1O)SC2	-0.5
Cc1cccc2nc(CCl)cc(=O)n12	1.4
CCn1c(CCNC(=O)c2ccccc2OC)nc2ccccc21	0.23
Cc1ccc(C)c(COc2ccc3c(c2)oc(=O)c2ccccc23)c1	0.32
O=C(NCCO)c1c(O)c2c([nH]c1=O)CCCC2	-1.2
COc1ccc(C2C(C)C3(N)NC(=O)C(C#N)(C3C)C2(C#N)C#N)cc1 (centres undefined)	-0.26
COc1ccc(O)c(C=Nc2c(C)n(C)n(-c3ccccc3)c2=O)c1	-0.21
CCCOc1ccc(C2C(C(=O)OC)=C(C)NC3=C2C(=O)CC(c2ccc(OC)cc2)C3)cc1 (centres undefined)	-0.9
CCOc1ccc(C(=O)Nc2cccc(C)n2)cc1	-0.84
CC(=O)NCCSc1c(-c2ccccc2)[nH]c2ccccc12	-1.5
Cc1ccc(C23CC4CC(CC(C4)C2)C3)cc1NC(=O)c1ccccc1	-0.79
Cc1cccc2nc(-c3c[nH]c4ccccc34)c(Nc3ccc4c(c3)OCO4)n12	2
O=C(CSc1nc2ccccc2[nH]1)Nc1nncs1	1.4
CC1=C(C(=O)Nc2ccc(C)cn2)C(c2ccc3c(c2)OCO3)C2=C(CC(C)(C)CC2=O)N1 (centres undefined)	0.75
COc1ccccc1C1CC(=O)C2=C(C1)NC(C)=C(C(=O)OC1CCCC1)C2c1ccc([N+](=O)[O-])cc1 (centres undefined)	0.29

More compounds
SMILES	Measles inh
O=S(=O)(NCCC1=CCCCC1)c1ccc2nc(-c3ccccc3)[nH]c2c1	-0.11
CCOC(=O)c1nn(-c2ccc(OC)cc2)c(=O)c2c(NC(=O)c3ccccc3C)scc12	-1.6
CC(=O)N(c1ccc(C)cc1)C1CC(C)N(C(=O)c2ccccc2)c2ccccc21 (centres undefined)	-0.25
CC(C)CSc1nc2c(cnn2-c2ccc(Cl)cc2)c(=O)[nH]1	-1.9
O=C(O)CSc1nc(-c2ccccc2)nc2c1CCCC2	-0.11
Cc1ccc(CNC(=O)Cn2c(=O)n(Cc3ccccc3)c(=O)c3c4c(sc32)CCCC4)cc1	0.25
Cc1c(NC(=O)c2ccc([N+](=O)[O-])cc2Cl)c(=O)n(-c2ccccc2)n1C	-0.46
CC(C)c1ccc(NC(=O)C2CCN(S(=O)(=O)c3cccs3)CC2)cc1	1
Cc1ccc2c(c1)N(CC(=O)O)C(=O)CO2	0.06
O=C1OC(=Nc2ccc(Br)cc2)c2ccccc21	0.04
Cc1ccccc1-n1cc(-c2ccccc2)nc1SCC(=O)Nc1nccs1	0.16
CC1(C)CC(=O)C2=C(C1)Nc1ccc3ncccc3c1C2c1cn[nH]c1-c1ccc(F)cc1 (centres undefined)	1.7
Cc1sc2c(c1C)c(=O)n(CCc1ccccc1)c(=O)n2CC(=O)Nc1ccccc1F	-0.44
COC(=O)C1=C(C)NC2=C(C(=O)CC(c3ccc(OC)cc3)C2)C1c1ccc([N+](=O)[O-])cc1 (centres undefined)	-0.29
O=C(CN1C(=O)c2ccccc2C1=O)Nc1cccc(I)c1	0.33
O=c1c2cccnc2[nH]c(=S)n1CCC1=CCCCC1	1.1
S=C1SCN(C2CCCCC2)CN1C1CCCCC1	-0.89
CCOc1ccc(-n2nc3ccc(NS(=O)(=O)c4ccccc4)cc3n2)cc1	0.09
C=Cc1ccc(N=Cc2c(O)ccc3ccccc23)cc1	-1.4
CC(Oc1ccc(F)cc1)C(=O)Nc1nc(-c2ccc(S(=O)(=O)N3CCOCC3)cc2)cs1 (centres undefined)	-0.9

Quoted from the results shown (2 entries):
SMILES	Measles inh
O=S(=O)(NCCC1=CCCCC1)c1ccc2nc(-c3ccccc3)[nH]c2c1	-0.11
CCOC(=O)c1nn(-c2ccc(OC)cc2)c(=O)c2c(NC(=O)c3ccccc3C)scc12	-1.6

New compounds follow
SMILES	Measles inh
COc1cc(OC)cc(C(=O)N2CCN(C(=O)COc3ccc(Cl)cc3)CC2)c1	-0.8
C(=Nc1c(-c2ccccc2)nc2n1CCS2)c1ccccc1	-0.05
CC1=C(C(=O)Nc2ccc(C)cc2)C(c2ccc(Cl)cc2)n2ncnc2N1 (centres undefined)	-0.35
Cc1ccc(N2CC(C(=O)OCC(=O)c3ccc(Cl)cc3)CC2=O)cc1 (centres undefined)	-1.2
O=C(NCc1ccccc1Cl)C1CCC(CNS(=O)(=O)c2ccc(F)cc2)CC1 (centres undefined)	0.57
Cc1ccc(C(=O)O)cc1NC(=O)c1cc2cc(Br)ccc2oc1=O	1.4
Cn1c(=O)c2c(nc(SC(c3ccccc3)c3ccccc3)n2C)n(C)c1=O	-0.51
COC(=O)C(CC(C)C)NC(=O)CSc1nnc2c(n1)[nH]c1ccccc12 (centres undefined)	2
CCOc1ccc(S(=O)(=O)N2CCSC2c2ccc(Cl)cc2)cc1 (centres undefined)	-0.56
c1ccc(C2(CNc3ccccn3)CCCC2)cc1	-1.1
CCN(CC)CCNc1ncnc2ccc(Br)cc12	0.67
Cc1nc2sc(C(c3ccco3)N3CCCC(C)C3)c(O)n2n1 (centres undefined)	0.07
COc1ccccc1CC(=O)N1CC(=O)N(CCc2ccccc2)C(=O)C1	-0.26
CN(C(=O)c1coc(=O)c2ccccc12)c1cccc(Cl)c1	-0.72
Cc1ccc(Cl)cc1NC(=O)CN(c1cccc(C)c1C)S(=O)(=O)c1ccccc1	-0.82
CCOc1ccccc1C1Nc2ccccc2NC2=C1C(=O)CC(c1cccs1)C2 (centres undefined)	-0.4
COc1ccc(Cl)cc1NC(=O)c1c(NCc2ccc(OC)c(OC)c2)sc2c1CCC2	1
COc1ccc(CN2C(=O)c3ccccc3C2C(=O)NCCCN2CC(C)CC(C)C2)cc1 (centres undefined)	-0.85
COc1cccc2c1OC13CCCC1C2NC(=S)N3c1cccc(SC)c1 (centres undefined)	-2.1
Cc1nnc(-c2ccccc2)nn1	-0.99
CCCCNC(=O)CCS(=O)(=O)c1cccc2nsnc12	-0.35
CCc1ccc(NC(=O)C2CCCN(S(=O)(=O)c3cccc4nonc34)C2)cc1 (centres undefined)	-0.48
NC(=O)COc1cc2oc(=O)c3c(c2cc1Cl)CCC3	0.48
Cc1cccc(C(=O)NC(NCCOC23CC4CC(CC(C4)C2)C3)(C(F)(F)F)C(F)(F)F)c1	0.57
CC(=O)c1c(N2CCOCC2)nc2ccc(Br)cc2c1-c1ccccc1	-0.41
CCN(CC)c1nc(C)nc2sc(C(=O)Nc3ccc(C)c(F)c3)c(C)c12	-0.01
O=C1OC(c2ccc([N+](=O)[O-])cc2)Sc2ccccc21 (centres undefined)	0.03
Cc1cc(C)c(NC(=O)C(C)N2C(=O)c3ccccc3C2=O)c(C)c1 (centres undefined)	-0.29
COC(=O)c1ccc(-n2nnnc2SCC(=O)Nc2ccc(F)cc2)cc1	1
O=C(O)C1CSC(c2ccccc2C(F)(F)F)N1 (centres undefined)	-0.22
C(=Cc1ccccc1)CN1CCN(C2c3ccccc3-c3ccccc32)CC1	-1.6
O=C(Nc1cccc(C(F)(F)F)c1)c1ccc2snnc2c1	0.11
COc1ccccc1N1CCN(C(=O)c2ccc(N3CC4CC(C3)c3cccc(=O)n3C4)c(NC(=O)c3ccc(F)cc3)c2)CC1 (centres undefined)	-1.3
O=c1oc2ccccc2c2c1ncn2CCN1CCCC1	1.2
O=C1CCCC2=C1C(C#Cc1ccccc1)C1=C(CCCC1=O)O2	1
CCC(=O)Oc1ccc2c(=O)c(Oc3cc(C)cc(C)c3)coc2c1	1.4
CC(=O)C1=C(O)C(=O)N(c2nc3ccccc3s2)C1c1ccc(F)cc1 (centres undefined)	-0.89
CCC(C)NC(=O)c1ccc(Sc2ccc(Br)cc2)c([N+](=O)[O-])c1 (centres undefined)	2.1
Cc1c(C(=O)N(C)C)sc2[nH]c(=S)n(CCc3ccc(Cl)cc3)c(=O)c12	-1.3
Cc1nnc(NC(=O)c2cccc(S(=O)(=O)N3CCCCCC3)c2)s1	-0.2
CCN(CC)C(=O)c1cn(C)c2ccc(S(=O)(=O)N(CC)CC)cc2c1=O	0.42
O=C(CCS(=O)(=O)c1ccc(Br)cc1)N1CCN(c2ccc(F)cc2)CC1	1.9
Cc1sc2c3c(ccc2[n+]1CCO)CCCC3	-0.06
O=C(CSc1nc2ccccc2s1)N1CCOCC1	-0.82
COc1ccc(C(=O)Nc2ccc(NC(=O)c3cccs3)cc2)cc1	1
Cc1ccccc1NC(=O)CC1Sc2ccccc2NC1=O (centres undefined)	-0.07

In the list so far, these have an NH in an aromatic ring.
SMILES	Measles inh
CCc1c(O)nc(SCc2ccc(F)cc2)[nH]c1=O	-0.72
O=c1[nH]c(NCCO)nc2ncn(Cc3ccccc3)c12	-0.37
CCN(CC)S(=O)(=O)c1cc(-c2n[nH]c(=O)c3ccccc23)ccc1C	1.9
COc1ccc(-c2n[nH]c(=S)n2Cc2ccccc2)cc1OC	-0.4
O=C(Nc1cc(NC(=O)C2CCCCC2)cc(-c2nc3ccccc3[nH]2)c1)C1CCCCC1	0.59
CC(=O)c1c(C)[nH]c(C(=O)NC2CCCC2)c1C	-0.9
O=C(NCCO)c1c(O)c2c([nH]c1=O)CCCC2	-1.2
CC(=O)NCCSc1c(-c2ccccc2)[nH]c2ccccc12	-1.5
Cc1cccc2nc(-c3c[nH]c4ccccc34)c(Nc3ccc4c(c3)OCO4)n12	2
O=C(CSc1nc2ccccc2[nH]1)Nc1nncs1	1.4
O=S(=O)(NCCC1=CCCCC1)c1ccc2nc(-c3ccccc3)[nH]c2c1	-0.11
CC(C)CSc1nc2c(cnn2-c2ccc(Cl)cc2)c(=O)[nH]1	-1.9
CC1(C)CC(=O)C2=C(C1)Nc1ccc3ncccc3c1C2c1cn[nH]c1-c1ccc(F)cc1 (centres undefined)	1.7
O=c1c2cccnc2[nH]c(=S)n1CCC1=CCCCC1	1.1
COC(=O)C(CC(C)C)NC(=O)CSc1nnc2c(n1)[nH]c1ccccc12 (centres undefined)	2
Cc1c(C(=O)N(C)C)sc2[nH]c(=S)n(CCc3ccc(Cl)cc3)c(=O)c12	-1.3

The list is partial; rates above refer to the full screens.
